RecA intein inh – Mtb RecA intein splicing inhibition. cell-free RecA intein splicing, fluorescence. inhibition, %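 (about 9 µM by stock and volumes)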. actives 0.75% (n = 290,000). AID 2221; in the data active means inhibition above about 30%; inconclusive means no clear call, values can overlap the other calls;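 further: 0% = vehicle wells and 100% = reference inhibitor control wells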
Target sequence (P9WHJ3 whole entry, looked up): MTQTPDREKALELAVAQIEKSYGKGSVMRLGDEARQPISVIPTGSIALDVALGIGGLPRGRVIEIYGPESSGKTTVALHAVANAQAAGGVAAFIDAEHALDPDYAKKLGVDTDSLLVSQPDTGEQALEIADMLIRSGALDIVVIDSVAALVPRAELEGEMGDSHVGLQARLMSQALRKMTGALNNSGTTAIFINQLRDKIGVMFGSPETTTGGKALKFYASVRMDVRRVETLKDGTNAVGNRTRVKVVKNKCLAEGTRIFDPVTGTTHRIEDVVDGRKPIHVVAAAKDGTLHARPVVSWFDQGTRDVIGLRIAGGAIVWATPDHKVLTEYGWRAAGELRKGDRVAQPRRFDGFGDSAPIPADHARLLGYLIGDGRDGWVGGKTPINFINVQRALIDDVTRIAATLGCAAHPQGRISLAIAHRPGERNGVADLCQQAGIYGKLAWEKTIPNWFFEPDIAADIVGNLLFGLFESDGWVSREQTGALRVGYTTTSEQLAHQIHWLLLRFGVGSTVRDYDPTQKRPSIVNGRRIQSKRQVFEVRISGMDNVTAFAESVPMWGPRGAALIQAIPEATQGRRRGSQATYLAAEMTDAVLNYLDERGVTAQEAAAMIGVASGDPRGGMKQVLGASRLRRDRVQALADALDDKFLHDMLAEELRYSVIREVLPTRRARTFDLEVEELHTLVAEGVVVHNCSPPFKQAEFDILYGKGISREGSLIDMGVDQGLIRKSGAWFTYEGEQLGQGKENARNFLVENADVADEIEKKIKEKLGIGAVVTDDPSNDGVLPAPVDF
Mtb bLac sens – beta-lactam sensitization of Mtb H37Rv | M. tuberculosis H37Rv growth with meropenem, percent inhibition; hits of this screen are not shown here | inhibition, % at 25 µM | actives 0.27% (n = 330,000) | AID 434955;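 active means about 74% or more and at least 40 points above the plate without the antibiotic, then above 30% in a dose series; inconclusive means first-round hits that could not be retested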;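 further: growth measured after seven days incubation then overnight dye step; 0% = bacteria only wells and 100% = bacteria with antibiotic; twin plates without the antibiotic show which effects depend on it; some results filed as inactive read as strong as hits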
Mtb growth – M. tuberculosis H37Rv growth inhibitors, H37Rv strain (AID 1626); actives 0.95% (n = 220,000); inhibition, % at 10 µM; hits with a dose series show IC50 in µM; M. tuberculosis H37Rv growth inhibition; higher % means a stronger effect;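 active means confirmed in a dose series; inconclusive means inhibition above 80% but not taken into the dose series; inactive means below 80% or under 30% at every dose of the series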;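 further: bacteria incubated seven days before Alamar blue readout; 0% = bacteria only wells and 100% = bacteria with antibiotic wells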
YopH PTP inh – inhibitors of Yersinia enterocolitica YopH tyrosine phosphatase; fluorescence Ex485/Em525; inhibition, %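 (about 10 µM by stock and volumes)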; actives 0.16% (n = 140,000); AID 898;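 active means inhibition of 50% or more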;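 further: controls were vehicle for no effect and minimum signal wells for full effect; inactives centre near -20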
Arbovirus anti – antivirals against arbovirus infection. arbovirus infection cell-based antiviral screen. inhibition, % at 10 µM. actives 0.37% (n = 200,000). AID 1251;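 active means inhibition from about 30%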;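 further: bluetongue infection of BSR cells; cell survival read as ATP light after 72 h; 0% = infected wells without compound and 100% = uninfected wells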
Arbovirus anti repeat – also measured in Arbovirus anti; calls as there; inhibition, %; measured here: 10K subset replicate screen; many hits read low in the repeat;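 first of two repeat runs on a subset; 0% = infected and 100% = uninfected wells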
* marks the source's active call; other numbers are inactive results; ? = inconclusive; / = not tested or not shown. A portion of the library; rates above refer to the full screens.

SMILES	RecA intein inh	Mtb bLac sens	Mtb growth	YopH PTP inh	Arbovirus anti	others
CCOCCOC(=O)C1=C(C)N(C)C(=O)NC1c1ccccc1Cl (stereo not given)	1.7	-10	-1%	-30	3	Arbovirus anti repeat=2
CC1CCCC(N2C(=O)NC(NC(=O)c3ccco3)(C(F)(F)F)C2=O)C1C (stereo not given)	-0.8	-8	-1%	-36	2
CCCCOC(=S)NC(=O)c1sc2ccccc2c1Cl	4.2	96	3%	-2	-2
Cc1cc(C)n2c(SCC(=O)Nc3c(C)n(C)n(-c4ccccc4)c3=O)nnc2n1	0.6	-7	-2%	-8	1
O=S(=O)(c1cnc[nH]1)N1CCc2ccccc21	1.9	-6	3%	-16	-2
CCc1c(C)sc(NC(=O)c2cc(CC(C)C)on2)c1C#N	0.3	7	8%	-17	-2
CCOc1ccccc1CSc1nc2ccccc2[nH]1	4.3	2	2%	-25	14
Cc1ccc(S(=O)(=O)N(CC(=O)NCc2ccccn2)c2ccc(Cl)cc2)cc1	0.6	-12	/	/	/
COc1ccc(N(C)C(=O)Cc2c(C(=O)O)[nH]c3ccccc23)cc1	1.5	-5	4%	/	1
COC(=O)C1=C(C)N(c2cccc(Cl)c2)C(=O)C1	0.7	49	-4%	-3	-3
Cc1cc(C)nc(NS(=O)(=O)c2ccc(NC(=O)CN3C(=O)C4CC=CCC4C3=O)cc2)n1 (stereo not given)	0.3	-3	6%	/	4
COc1ccc(-c2noc(C3CCCN(S(=O)(=O)c4cccc(Cl)c4)C3)n2)cc1OC (stereo not given)	-1.1	3	2%	5	3
Cc1cccnc1NC(=O)NC(=O)c1ccc(C(C)(C)C)s1	1.7	52	1%	/	/
Cc1ccc2c(c1)C1(SCCS1)C(=O)N2	-2.2	-2	-9%	-42	-22
COc1ccc(OC)c(NC(=O)NCc2ccc(F)cc2)c1	-3.6	8	-5%	-10	-5
Cc1ccc(CNC(=O)CCc2c(C)[nH]c(=O)c(C#N)c2C)cc1	0.2	4	/	/	/
COCc1cc(=O)n2[nH]c(-c3ccco3)cc2n1	3.9	-2	-3%	/	/
CCCCOc1ccc(C(=O)N2CCCC2C(=O)O)cc1 (stereo not given)	-1.1	-8	-1%	0	-1
O=C(Nc1nccs1)c1cn(-c2ccccc2)nc1-c1ccncc1	0.3	-2	5%	/	-3
O=c1oc(-c2ccccc2)nc2c1cnn2-c1ccccc1	0.0	99	20%	-44	-2
Cc1ccc(NC(=O)CS(=O)CC(=O)N(C(C)C(=O)NC2CCCCC2)C(C)(C)C)cc1 (stereo not given)	0.7	-16	1%	/	5
COc1ccc(N2CCN(S(=O)(=O)c3c(C)[nH]c(C)c3C(=O)N3CCCC3)CC2)cc1	-4.8	-4	/	/	/
O=C(COC(=O)c1ccco1)Nc1ccc(Br)cc1	1.2	-8	-2%	-33	1	Arbovirus anti repeat=-1
Cc1ccc(-n2c(SCC(=O)N3CC(=O)Nc4ccccc43)nc3ccccc3c2=O)cc1C	13	-5	8%	-36	-6
CSCc1c(C(=O)NCCc2ccccn2)oc2ccccc12	0.6	6	/	/	/

Six records picked at random from the list so far, as already listed:
SMILES	RecA intein inh	Mtb bLac sens	Mtb growth	YopH PTP inh	Arbovirus anti	others
COc1ccc(N2CCN(S(=O)(=O)c3c(C)[nH]c(C)c3C(=O)N3CCCC3)CC2)cc1	-4.8	-4	/	/	/
CCOc1ccccc1CSc1nc2ccccc2[nH]1	4.3	2	2%	-25	14
CSCc1c(C(=O)NCCc2ccccn2)oc2ccccc12	0.6	6	/	/	/
Cc1cc(C)n2c(SCC(=O)Nc3c(C)n(C)n(-c4ccccc4)c3=O)nnc2n1	0.6	-7	-2%	-8	1
O=S(=O)(c1cnc[nH]1)N1CCc2ccccc21	1.9	-6	3%	-16	-2
CC1CCCC(N2C(=O)NC(NC(=O)c3ccco3)(C(F)(F)F)C2=O)C1C (stereo not given)	-0.8	-8	-1%	-36	2

In the list so far, two have fluorine:
SMILES	RecA intein inh	Mtb bLac sens	Mtb growth	YopH PTP inh	Arbovirus anti	others
CC1CCCC(N2C(=O)NC(NC(=O)c3ccco3)(C(F)(F)F)C2=O)C1C (stereo not given)	-0.8	-8	-1%	-36	2
COc1ccc(OC)c(NC(=O)NCc2ccc(F)cc2)c1	-3.6	8	-5%	-10	-5

Returning to the listing with the 3 entries that preceded the break.
SMILES	RecA intein inh	Mtb bLac sens	Mtb growth	YopH PTP inh	Arbovirus anti	others
O=C(COC(=O)c1ccco1)Nc1ccc(Br)cc1	1.2	-8	-2%	-33	1	Arbovirus anti repeat=-1
Cc1ccc(-n2c(SCC(=O)N3CC(=O)Nc4ccccc43)nc3ccccc3c2=O)cc1C	13	-5	8%	-36	-6
CSCc1c(C(=O)NCCc2ccccn2)oc2ccccc12	0.6	6	/	/	/
O=C(c1cc2ccccc2o1)N1CCN=C1SCc1cccnc1	-0.2	-14	-10%	-15	3
N/C(CCN1CCOCC1)=N/O	-5.5	-15	-3%	-22	4
Cc1ccc(CN(C(=O)Cn2nnc3ccccc32)C(C(=O)NCc2ccco2)c2cccs2)cc1 (stereo not given)	-1.7	9	10%	-31	-31
CC(C)C[C@H](N)c1nnc(SCc2ccc(Cl)cc2)o1	0.7	18	7%	/	/
Cc1csc(NC(=O)C2C3C=CC(C3)C2C(=O)O)n1 (stereo not given)	-7.9	-1	-5%	-3	4
Cc1cc(C(=O)NC(C)c2ccc3c(c2)OCO3)cs1 (stereo not given)	0.3	/	-2%	-28	-5
CCC(C)Sc1nc(O)cc(=O)[nH]1 (stereo not given)	-2.4	-6	-10%	-41	8
COc1cc(OC)cc(C(=O)Nc2cccc3c2CCCC3)c1	0.8	-2	/	/	/
CC(C)C(=O)NC(=S)Nc1ccccc1C(F)(F)F	-0.3	3	10%	-30	-1
CCCOc1ccc(/C=C/C(=O)Nc2ccc([N+](=O)[O-])cc2C)cc1	1.0	-4	-8%	-45	2
COc1cc(C(=O)NC2CCCCC2)ccc1OCc1ccc(Cl)cc1Cl	-0.5	/	7%	-31	-9
C=CCN1C(=O)C2(C(C(=O)c3ccc(C)o3)=C(O)C(=O)N2CCCN2CCOCC2)c2ccccc21 (stereo not given)	-0.6	-4	1%	-43	-7
CC(=O)OC[C@]1(OC(C)=O)C[C@@]23CC[C@H]4[C@@](C)(CCC[C@@]4(C)C(=O)O)[C@@H]2CC[C@@H]1C3	3.9	-1	-19%	-15	29
CC(=O)Nc1ccc(S(=O)(=O)NCC(=O)OCc2cc(=O)oc3ccc4ccccc4c23)cc1	-1.7	-4	-4%	-18	2
CC(=O)C1=C(O)C(=O)N(c2nnn(C)n2)C1c1cccs1 (stereo not given)	-2.1	1	-7%	-41	5	Arbovirus anti repeat=7
Cc1c(NS(=O)(=O)c2ccc(Cl)c(C(=O)OC(C)C(=O)NCc3ccco3)c2)c(=O)n(-c2ccccc2)n1C (stereo not given)	-4.3	2	-10%	/	18
O=S(=O)(Nc1cccc(-c2cn3cccnc3n2)c1)c1ccc(Cl)cc1	-2.9	7	8%	-31	5
COc1cc(NC(=O)Cn2c(=O)n(CC3CCCO3)c(=O)c3cc(OC)c(OC)cc32)cc(OC)c1 (stereo not given)	-1.0	-1	/	/	/
CCCCCOc1ccc(C(=O)C(c2ccccc2)N2CCOCC2)cc1 (stereo not given)	13	4	12%	5	-7
C[C@H](NC(N)=O)C(=O)OCC(=O)NCc1cccs1	-0.5	-1	5%	/	3
CC1CCC(NC(=O)C2CCN(C(=O)NC3CCCCC3)CC2)CC1 (stereo not given)	0.6	/	-6%	-51	3
O=C(NC1CCCC1)c1ccc(COCC(F)(F)C(F)F)o1	-5.9	6	8%	36	-2
COC(=O)Cn1c(=O)n(CCc2ccccc2)c(=O)c2c3c(sc21)CCCC3	3.7	26	7%	-9	3
CC(OC(=O)/C=C/c1ccc2ccccc2n1)C(=O)NCc1ccccc1 (stereo not given)	-0.4	83	/	/	/
Clc1cccc(/C=N/Nc2ncnc3ccccc23)c1	-3.5	100	-10%	-34	-20
Additional results follow:
SMILES	RecA intein inh	Mtb bLac sens	Mtb growth	YopH PTP inh	Arbovirus anti	others
COC(=O)/C=C1\SC(=NC(=O)c2cccc([N+](=O)[O-])c2)NC1=O	-1.3	1	/	/	/
Cc1ccccc1C(=O)NCC(=O)OC(C)C(=O)Nc1cccc(S(=O)(=O)N2CCOCC2)c1 (stereo not given)	-8.2	-13	/	/	/
COc1cc(/C=N/NC(=O)COc2ccccc2C)ccc1OC(=O)c1cccs1	8.3	-7	-2%	-23	1
C/C(CC1CC(COCC(C)C)OC1=O)=N\NC(N)=S (stereo not given)	0.5	-4	-3%	-27	10
CC(C)C(NC(=O)C1CCCCC1)C(=O)Nc1ccccn1 (stereo not given)	0.6	-2	-4%	-41	0
CCCCOC(=O)NC1CCS(=O)(=O)C1 (stereo not given)	-0.3	?	0%	24	1
Cc1onc(-c2ccccc2)c1C(=O)N1CCN(CCc2ccccc2)CC1	2.0	2	2%	-87	0
C#CCn1c(S(=O)(=O)Cc2ccccc2Cl)nc(-c2ccccc2)c1-c1ccccc1	1.1	6	-2%	-21	-7
Cc1cccc(NC(=S)NCc2ccco2)n1	1.6	0	2%	/	1
Cc1cccc(COc2ccc(/C=C3/C(=O)N(C)C(=S)N3C)cc2)c1	2.9	41	/	/	/
Cc1ccc(S(=O)(=O)N2CCC(=O)N(CCOC(=O)NCc3ccccc3)CC2)cc1	/	-5	-12%	-22	-3
CCCN(CCC)S(=O)(=O)c1cccc(C(=O)Nc2ccc3c(c2)OCO3)c1	/	-3	/	-40	-24
CCN(CCCNC(=O)COc1cc(=O)n(C)c2ccccc12)c1cccc(C)c1	-2.7	6	1%	-12	-7
COc1cc(-c2[nH]ncc2CN2CCN(Cc3cccs3)CC2)cc(OC)c1OC	0.7	-4	-1%	/	-16
COc1ccc(NC(=O)CSc2cc(C(=O)c3nccn3C)c3ccccc3n2)cc1	-0.4	4	3%	/	-1
CC(=O)Nc1ccc(NS(=O)(=O)c2ccc3ccccc3c2)cc1	0.8	2	-10%	-5	7
COCc1cc(C)n(CC(=O)Nc2ccccc2C(=O)OC)c(=O)c1C#N	-1.3	0	6%	-39	3
O=S(=O)(NCCO)c1cccc2cccnc12	-3.0	1	-7%	-27	1	Arbovirus anti repeat=0
O=c1[nH]ncn1-c1ccccc1C(F)(F)F	0.9	-2	-4%	-11	6
CCCOc1ccc(C(=O)Nc2ccc(CN3CCOCC3)cc2)cc1	-0.1	4	/	/	/
Cc1ccc(C(=O)OCc2nnc(-c3ccccc3)o2)cc1S(=O)(=O)N1CCOCC1	-0.5	1	/	/	/
Cc1ccc2nc(SC(C)C(=O)NCc3ccco3)[nH]c2c1 (stereo not given)	2.4	-2	-13%	-5	-1
CCN(CC)CC(=O)Nc1cccc2c1C(=O)c1ccccc1C2=O	/	3	-2%	/	-10
COC(=O)COn1c(SC(C)C)nc2ccccc2c1=O	0.4	-6	0%	-15	3

Nothing new here: two of the compounds above.
SMILES	RecA intein inh	Mtb bLac sens	Mtb growth	YopH PTP inh	Arbovirus anti	others
COC(=O)/C=C1\SC(=NC(=O)c2cccc([N+](=O)[O-])c2)NC1=O	-1.3	1	/	/	/
Cc1ccccc1C(=O)NCC(=O)OC(C)C(=O)Nc1cccc(S(=O)(=O)N2CCOCC2)c1 (stereo not given)	-8.2	-13	/	/	/

Screening data: PubChem, several laboratories
